Screening data as filed in PubChem BioAssay.
PLK1 kinase inh = inhibitors of human PLK1 kinase; 97,000 tested, 0.53% active; recombinant PLK1 kinase, TR-FRET peptide phosphorylation; P53350; inhibition, % at 10 µM;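 active = inhibition of 50% or more in the single-concentration screen; inactive = inhibition below 50%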;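 also: 0% = DMSO max control and 100% = H-89 dihydrochloride min control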
PLAP activator = activates human placental alkaline phosphatase; P05187; purified PLAP enzyme, luminescent substrate read-out; hits give high values; activation fold at 20 µM; 96,000 tested, 1.2% active; AID 696; in the data active = activation fold above about 2
Target sequence (P05187 whole entry, looked up): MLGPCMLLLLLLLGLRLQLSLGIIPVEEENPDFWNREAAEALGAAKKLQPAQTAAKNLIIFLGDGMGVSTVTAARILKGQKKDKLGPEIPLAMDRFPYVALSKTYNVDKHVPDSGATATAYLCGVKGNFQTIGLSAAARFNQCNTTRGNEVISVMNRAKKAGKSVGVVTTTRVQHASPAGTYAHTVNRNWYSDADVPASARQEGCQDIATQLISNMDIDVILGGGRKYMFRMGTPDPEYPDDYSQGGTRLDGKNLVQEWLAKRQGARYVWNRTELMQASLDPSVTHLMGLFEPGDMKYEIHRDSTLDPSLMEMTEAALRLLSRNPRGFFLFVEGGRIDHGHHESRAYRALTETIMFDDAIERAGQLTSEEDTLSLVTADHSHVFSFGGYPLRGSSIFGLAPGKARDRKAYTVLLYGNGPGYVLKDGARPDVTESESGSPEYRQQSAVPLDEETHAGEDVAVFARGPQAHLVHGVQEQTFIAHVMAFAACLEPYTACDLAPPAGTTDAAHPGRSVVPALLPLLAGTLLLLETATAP
EphB4 ephrin blk = antagonists of human EphB4-ephrin-B2 interaction | P54760 | EphB4 LBD / TNYL-RAW-Alexa532 peptide, fluorescence polarization | inhibition, % at 7 µM | 97,000 tested, 0.15% active | AID 720;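 active = inhibition above the screen-wide mean inhibition plus 3 SD, cut at about 15% in these data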;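 also: 0% = DMSO wells and 100% = excess unlabeled TNYL-RAW peptide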
HIV Rev-RRE inh = HIV Rev-RRE protein-RNA interaction inhibition; P05866; Rev peptide-RRE RNA binding, FRET; inhibition, % at 8 µM; 97,000 tested, 0.79% active; AID 704;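 active = inhibition above the screen-wide mean plus 3 SD, cut at about 35% in these data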;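 also: 0% = median DMSO wells and 100% = median Neomycin B control wells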
Target sequence (P05866 whole entry, looked up): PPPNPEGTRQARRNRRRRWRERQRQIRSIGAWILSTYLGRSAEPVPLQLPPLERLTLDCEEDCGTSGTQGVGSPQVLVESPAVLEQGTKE
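Test system: labelled RRE RNA duplex and labelled Rev peptide. Times: 5 min compound–RNA preincubation, then 15 min with peptide, 25 °C. Doses: single-dose 8 µM. Measured by: FRET, excitation 480 nm, emission 540 nm donor and 671 nm acceptor. Measure: % inhibition of FRET ratio versus controls.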
PLK1 PBD inh = Plk1 (human) PBD binding inhibition. AID 693. 97,000 tested, 0.13% active. inhibition, %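 (tested at about 20 µM)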. Plk1 PBD phosphopeptide binding, fluorescence polarization. P53350; in the data active = inhibition above about 34%, passing the limit was not always enough
Numbers without * were called inactive; / = not tested or not shown. Only part of the results is shown (hit frequency here may not be typical).

SMILES	PLK1 kinase inh	PLAP activator	EphB4 ephrin blk	HIV Rev-RRE inh	PLK1 PBD inh
Cc1ccc(-c2cc(C(=O)N3N=C(C(F)F)CC3(O)C(F)F)c3ccccc3n2)cc1C (stereo unspecified)	-12	1.3	7	9	-22
FC(F)(F)c1cc(-c2ccccc2)nc(N2CCOCC2)n1	-11	0.9	-5	12	16
CCCc1cc(C(=O)Cc2nc3ccccc3s2)c(O)cc1O	-7	1.5	13	13	-21
CC(C)OCCCn1c(=S)[nH]c2ccc(N3CCOCC3)cc2c1=O	/	1.6	/	/	/
Cc1cc2n(n1)SC(Nc1ccccc1)N2 (stereo unspecified)	-6	1	0	7	31
CCOc1cc(/C=C(/C#N)c2nc3ccccc3[nH]2)ccc1OCc1ccc(C(=O)O)o1	3	1.3	6	12	-24
Cc1ccc(Nc2nc(N3CCOCC3)nc(N3CCOCC3)n2)cc1	1	1	-6	2	-13
CCOC(=O)c1c(NC(=O)c2c(Br)cnn2C)c(C#N)nn1-c1ccccc1	-8	1	3	8	7
O=C1c2ccccc2NC(c2ccncc2)N1c1ccccn1 (stereo unspecified)	-9	1	0	6	-28
CCCS(=O)(=O)N1CCCC(C(=O)NCc2cccnc2)C1 (stereo unspecified)	-4	1	1	8	-15
O=[N+]([O-])c1ccc(N2CCCCCC2)c(S(=O)(=O)N2CCCCC2)c1	9	0.9	8	17	-21
COc1ccccc1/C=N/NC(=O)CC(=O)Nc1ccc(Cl)c(Cl)c1	-11	1	3	13	-2
Cc1snc(SCC(=O)N/N=C(\N)COc2cccc(C(F)(F)F)c2)c1C#N	13	1.3	-9	-5	-8
CCOC(=O)c1c(-c2ccccc2)nc2ccc(Cl)cn12	-4	0.8	-3	8	6
COc1ccc(-c2c(C(C)=O)c(C)nc3sc4c(c23)NC(c2ccccc2)NC4=O)cc1 (stereo unspecified)	-108	1.1	-10	2	4
Cc1ccc(OCC(=O)c2c(O)c3ccccc3oc2=O)cc1C	-5	0.9	6	4	-6
CCCCCC1CC1C(=O)N/N=C/c1ccc(N(C)C)cc1 (stereo unspecified)	-14	0.9	-3	4	-20
Cc1ccc(SCc2nnc(NC(=O)c3ccccc3)s2)cc1	-9	1.1	-2	1	9
CN(C)c1ccc(N=C/C=C2\N(C)c3ccccc3C2(C)C)cc1	-4	0.8	-1	-14	-58
CC(=O)c1ccc(NC(=O)Cn2nc(C)cc2C)cc1	2	1.1	-32	0	-29

An excerpt from above, reduced to PLAP activator, EphB4 ephrin blk and PLK1 kinase inh.
Structure | PLAP activator | EphB4 ephrin blk | PLK1 kinase inh
O=C1c2ccccc2NC(c2ccncc2)N1c1ccccn1 (stereo unspecified) | 1 | 0 | -9
CCCCCC1CC1C(=O)N/N=C/c1ccc(N(C)C)cc1 (stereo unspecified) | 0.9 | -3 | -14

The list continues.
SMILES	PLK1 kinase inh	PLAP activator	EphB4 ephrin blk	HIV Rev-RRE inh	PLK1 PBD inh
CC1=NN(c2ccc(Br)cc2)C(=O)/C1=C/c1cccs1	-23	1.1	-4	9	-29
COc1ccc(C(=O)Nc2n[nH]c(-c3ccncc3)n2)cc1	-3	0.9	2	0	-15
O=C(Nc1ncc2c(n1)-c1ccccc1CC2)c1ccc(Cl)cc1	123*	1	1	5	-10
O=S(=O)(NCCNS(=O)(=O)c1cccs1)c1cccs1	0	0.9	-6	0	3
CCC(=O)Nc1ccc(/C(C)=N\NC(=O)c2ccc(C)s2)cc1	-3	0.8	2	0	-1
CCOC(=O)Cn1nc(C)c2c1CCCC2=O	7	1.1	4	9	-2
CN(C)S(=O)(=O)Oc1ccsc1C(=O)Nc1ccc(Cl)cc1	-2	0.8	-7	6	3
Cc1cc(C)c(S(=O)(=O)Nc2c(C)[nH]c(=O)[nH]c2=O)c(C)c1	-6	0.9	-5	3	40
c1ccc2c(-c3c[nH]c4ccccc34)c3ccccc3nc2c1	-6	0.8	-1	15	-3
CN(C)c1ccnc(Oc2ccc(Cl)cc2)c1C#N	-12	1.2	3	0	-11
Cc1ccc(Cn2c(C)cc3c(c2=O)C(c2cccs2)C(C#N)=C(N)O3)cc1 (stereo unspecified)	-8	0.8	-9	9	-15
CC1CCN(CCCNC(=O)c2n[nH]c(=O)c3ccccc23)CC1	4	1.1	0	5	-22
CN1CCN(NC(=O)c2ccc(F)cc2)CC1	-6	1	-9	-2	2
CC(C)Sc1nc(O)c(Cc2ccccc2)c(=O)[nH]1	-4	0.8	1	-2	-7
CCN=C1S/C(=C\c2ccc(Sc3ccc(Cl)cc3)o2)C(=O)N1CC	-5	1	3	11	-13
COc1ccc(S(=O)(=O)N2c3cc(C)ccc3OCC2C(C)(C)C)cc1 (stereo unspecified)	-8	0.8	3	16	12
CCOc1c2ccc(C(=O)NCc3ccc(OC)cc3)cc2nn1CCOC	-7	1	1	2	7
N#Cc1c(N2CCCC(O)C2)nc(N)c2c(N)nc3c(c12)CC(=O)N3C12CC3CC(CC(C3)C1)C2 (stereo unspecified)	-11	1.3	1	12	-10
CCc1cccc(C)c1NC(=O)CSc1nc2ccc(N3C(=O)c4ccccc4C3=O)cc2s1	-4	1.1	0	10	11
O=C(Nc1ccc(F)cc1)c1cnc(-c2ccccc2)nc1-c1ccccc1	-12	1	-7	7	-31

Six entries already listed, arranged by the number in PLK1 PBD inh, descending:
SMILES	PLK1 kinase inh	PLAP activator	EphB4 ephrin blk	HIV Rev-RRE inh	PLK1 PBD inh
CCC(=O)Nc1ccc(/C(C)=N\NC(=O)c2ccc(C)s2)cc1	-3	0.8	2	0	-1
CCOC(=O)Cn1nc(C)c2c1CCCC2=O	7	1.1	4	9	-2
CC(C)Sc1nc(O)c(Cc2ccccc2)c(=O)[nH]1	-4	0.8	1	-2	-7
O=C(Nc1ncc2c(n1)-c1ccccc1CC2)c1ccc(Cl)cc1	123*	1	1	5	-10
Cc1ccc(Cn2c(C)cc3c(c2=O)C(c2cccs2)C(C#N)=C(N)O3)cc1 (stereo unspecified)	-8	0.8	-9	9	-15
CC1CCN(CCCNC(=O)c2n[nH]c(=O)c3ccccc23)CC1	4	1.1	0	5	-22

Next section
SMILES	PLK1 kinase inh	PLAP activator	EphB4 ephrin blk	HIV Rev-RRE inh	PLK1 PBD inh
CC(/C=N/NC(=O)c1n[nH]c2c1CCC2)=C\c1ccccc1	-1	1.5	3	-3	-33
CCCCNC(=O)CSc1nc2ccccc2c(=O)n1CCNC(C)=O	-6	1	4	4	-21
CCc1c(C)nc2c(C#N)c(C)[nH]n2c1=O	-6	1	-8	6	-10
Cc1ccccc1C(=O)N/C(=C/c1ccc(-c2cccnc2Cl)o1)C(=O)NCCCN1CCN(C)CC1	-10	1.3	1	2	31
O=C(CSc1nc2ccccc2c(=O)n1-c1ccc(Cl)cc1)c1ccco1	-3	0.9	0	1	-11
Cc1ccc(CNC(=O)c2nnn(-c3cccc(C)c3)c2N)cc1	0	0.9	-8	14	-20
COc1ccc(Cn2c(SCc3ccccc3C)nc3cc(OC)c(OC)cc3c2=N)cc1	-11	1.2	14	8	-14
COc1ccc(-c2nc(CS(=O)(=O)CC(=O)NCCc3cc(OC)ccc3OC)c(C)o2)cc1	-2	1.4	-2	5	6
O=C(NN=C1C2CC3CC(C2)CC1C3)c1ccncc1	-10	0.8	1	7	-9
CCOC(=O)Cc1csc(NS(=O)(=O)c2ccccc2)n1	-3	1.1	-7	7	-19
CCn1ncc(C(=O)Nc2cc(C)on2)c1C	-11	1	5	3	-17
CCOc1ccc(NC(=O)CSc2nnc(CCNC(=O)c3ccc(OC)cc3)n2CC)cc1	0	1.3	3	7	6
COc1ccc(/C=N/NC(=O)c2sccc2OCc2ccc(F)cc2)cc1OC	-3	1	-9	7	21
CC(NC(=O)c1ccccc1F)C(=O)O (stereo unspecified)	8	0.8	4	9	-13
COc1ccc(Cl)cc1S(=O)(=O)N1CCN(C(=O)c2cc(OC)c(OC)c(OC)c2)CC1	-11	1.6	-1	4	31
Cc1nc2ccccc2nc1SCC(=O)N1CCC(C)CC1	-5	1	-2	1	12
Cc1ccc(NC(=O)OCc2cn(-c3ccc(Cl)cc3)nn2)cc1	-9	0.9	-5	-2	17
NNc1nc(-c2ccccc2)cc(-c2ccccc2O)n1	-16	1.3	4	7	-19
Cc1cc(C)nc(N2CCC(C(=O)NCCc3ccc(F)cc3)CC2)n1	-3	1	1	6	-8
c1ccc(-c2nc(NCc3ccco3)c3oc4ccccc4c3n2)cc1	-7	1	-1	2	-14
O=C(NNC(=O)C1COc2ccccc2O1)c1ccccc1 (stereo unspecified)	-16	1.7	-3	6	21
CCOC(=O)N1CCN(C(=O)c2ccc3nc(SCc4ccc(F)cc4)n(C)c3c2)CC1	2	1.3	4	9	23
CCOC(=O)Cc1c(C)nc2c(-c3ccccc3)c(-c3ccccc3)[nH]n2c1=O	-7	1.3	-2	1	6
O=C(C=C1SCCS1)/C=C/c1ccco1	-9	1	1	11	-6
COc1cc(CNCCO)cc(Br)c1OCc1ccccc1Cl	-5	1.5	4	4	8
CCN(CCCNC(=O)C1CCN(S(=O)(=O)CC)CC1)c1cccc(C)c1	-2	1	-2	3	-32
CC1Cc2ccccc2N1C(=O)C1CCCN(S(=O)(=O)c2cccc3nsnc23)C1 (stereo unspecified)	0	1.2	4	6	18
Cc1onc(-c2ccccc2Cl)c1C(=O)NCc1cccs1	-9	1	-2	3	-1
COn1c(SCc2ccc(Cl)cc2)nc2ccccc2c1=O	-7	0.9	-1	5	10
Cc1ccc(C(=O)C2(C)C3c4cc(Br)ccc4OC(=O)C32C(=O)c2ccco2)cc1 (stereo unspecified)	-7	1	3	11	-25
CC(C)(C)C(=O)Nc1ccc2c(c1)-c1cc(NC(=O)C(C)(C)C)ccc1C2	-6	1	2	4	-9
CCOc1ccc(C(=O)Nc2ccc(Cl)cn2)cc1Cl	4	1.1	5	9	11
Cc1ccc(S(=O)(=O)N(C)c2cc(S(=O)(=O)N3CCC(C)CC3)c(C)cc2C)cc1	-10	1	-8	7	1
CC(=O)c1cn(CC(=O)Nc2ccccc2C)c2ccccc12	-2	1.3	7	0	-36
CCOC(=O)N1CCN(c2cc(N)c([N+](=O)[O-])cc2F)CC1	-3	0.8	-2	3	-16
COC(=O)C1=C(CSCc2ccccc2)NC(=O)NC1c1cc(C)ccc1C (stereo unspecified)	-6	0.8	-6	7	-7
CN(C)C(CNc1nnnn1-c1ccccc1)c1ccco1 (stereo unspecified)	-4	0.9	1	8	-19
O=[N+]([O-])c1ccc(S(=O)(=O)Nc2ccc(-c3csc(-c4ccccc4)n3)cc2)cc1	-13	1.1	1	11	34
Nc1ccc(Sc2ccccc2CC(=O)O)cc1	-1	1.1	-5	0	-12
Clc1ccc2ncc(-c3nnnn3-c3ccccc3)c(-c3ccccc3)c2c1	-8	1.1	-8	-2	-11
CCOc1ccc(NC(=S)NC(=O)/C=C/c2ccc(C)cc2)c([N+](=O)[O-])c1	-25	0.8	-4	7	20
O=[N+]([O-])c1cccc(-c2nnn(C34CC5CC(CC(C5)C3)C4)n2)c1	-2	1.1	0	12	-18
COC(=O)c1ccc(CSc2nnc(NC(C)C)s2)cc1	-15	0.9	2	2	-1
Cc1cccc(Nc2nc3c(c(=O)n(C)c(=O)n3C)n2CC(O)CO)c1 (stereo unspecified)	-11	1	5	7	9
Cc1cccc(NC(=O)CSc2ncnc3nc[nH]c23)c1C	16	1	-1	2	24
COC(=O)c1ccccc1NC(=O)Oc1ccc(F)cc1	-18	0.9	-4	5	34
CCCc1nc(SCC(=O)Nc2nc3c(s2)CCCC3)c2ccccc2n1	1	1.1	-2	8	8
COc1ccc(C(C(=O)NC(C)(C)C)N(C(=O)CNC(=O)c2cccs2)c2ccc(C)cc2)cc1OC (stereo unspecified)	-10	1.2	-6	-1	-7
Cc1ccc(-c2nc3ccccc3[nH]2)cc1NC(=O)c1sc2ccccc2c1Cl	-20	1.1	9	17	10
COc1cc(OC)c(OC)cc1CN(C)C(c1ccccc1)c1nnnn1-c1ccccc1C (stereo unspecified)	-6	1.4	-4	3	-12
CCOc1ccc(OCC)c(NC(=O)CN(C)S(=O)(=O)c2cnc[nH]2)c1	0	1.5	0	1	16
Cn1nnnc1SCC(=O)Nc1ccccc1[N+](=O)[O-]	-6	0.9	1	9	-5
COc1cc(/C=C(/C#N)C(=O)NCCc2c[nH]c3ccccc23)ccc1OCc1ccccc1F	-5	0.9	-4	10	4
COc1cc2cc(CN(CCCO)S(=O)(=O)c3ccccc3Cl)c(=O)[nH]c2cc1OC	-11	1.3	5	2	-11
COC(=O)CSc1nc(NC#N)nc(NC(C)C)n1	-10	1.2	5	7	6
O=C(Cn1cncn1)NCc1ccccc1Br	-10	0.9	3	-2	20
COc1ccc(C(=O)C(CCCCC(CN(C)C)C(=O)c2ccc(OC)cc2)CN(C)C)cc1 (stereo unspecified)	-8	1.4	-8	0	6
CC(Sc1ncnc2ccccc12)C(=O)Nc1ccc2c(c1)OCO2 (stereo unspecified)	-3	0.8	0	6	21
Cc1oc(-c2cccc(Cl)c2)[n+]([O-])c1C	-9	1.1	0	4	-34
